# GALR2 ag – activates the human galanin receptor 2; 140,000 tested, 0.48% active; GALR2-expressing cells, agonist activation read-out; activation, %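 (tested at 5 µM)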;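 active means above mean plus 3 SD of all compounds, about 5% in these data, not always enough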;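 further: 0% = vehicle buffer wells and 100% = reference agonist at full effect; tested in CHO reporter cells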
# HSV augment – HSV replication enhancement; HSV replication augmentation in cells, fold increase; maximum fold increase; 220,000 tested, 0.005% active;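 active means peak rise of 1.5-fold or more in the series; tested in PC3 cells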;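 further: first round at 10 µM; read as green reporter fluorescence; hits show the peak of a series up to 25 µM; 1 = signal of infected wells without compound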
# RGS16-Gao – modulates binding between human RGS16 and Galphao | O15492+P09471 | bead-based flow cytometry RGS16-Galphao binding, fluorescence; actives lie on both sides | binding response (% of control), % at 10 µM | 220,000 tested, 0.38% active;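 active means below 25% or above 175%, edge rows of some plates excepted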;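 further: Galphao activated by GDP with aluminum fluoride before binding; 100% = wells without compound and 0% = beads without RGS; some results beyond the cut were filed as inactive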
# PKD1 kinase inh – blocks activity of human protein kinase D1 | AID 797 | inhibition, %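 (about 10 µM by stock and volumes)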 | 200,000 tested, 0.056% active | Q15139 | PKD1 kinase fluorescence polarization assay;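 active means inhibition of 50% or more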;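 further: controls were vehicle for no effect and a reference inhibitor for full effect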
# Target sequence (Q15139 whole entry, looked up): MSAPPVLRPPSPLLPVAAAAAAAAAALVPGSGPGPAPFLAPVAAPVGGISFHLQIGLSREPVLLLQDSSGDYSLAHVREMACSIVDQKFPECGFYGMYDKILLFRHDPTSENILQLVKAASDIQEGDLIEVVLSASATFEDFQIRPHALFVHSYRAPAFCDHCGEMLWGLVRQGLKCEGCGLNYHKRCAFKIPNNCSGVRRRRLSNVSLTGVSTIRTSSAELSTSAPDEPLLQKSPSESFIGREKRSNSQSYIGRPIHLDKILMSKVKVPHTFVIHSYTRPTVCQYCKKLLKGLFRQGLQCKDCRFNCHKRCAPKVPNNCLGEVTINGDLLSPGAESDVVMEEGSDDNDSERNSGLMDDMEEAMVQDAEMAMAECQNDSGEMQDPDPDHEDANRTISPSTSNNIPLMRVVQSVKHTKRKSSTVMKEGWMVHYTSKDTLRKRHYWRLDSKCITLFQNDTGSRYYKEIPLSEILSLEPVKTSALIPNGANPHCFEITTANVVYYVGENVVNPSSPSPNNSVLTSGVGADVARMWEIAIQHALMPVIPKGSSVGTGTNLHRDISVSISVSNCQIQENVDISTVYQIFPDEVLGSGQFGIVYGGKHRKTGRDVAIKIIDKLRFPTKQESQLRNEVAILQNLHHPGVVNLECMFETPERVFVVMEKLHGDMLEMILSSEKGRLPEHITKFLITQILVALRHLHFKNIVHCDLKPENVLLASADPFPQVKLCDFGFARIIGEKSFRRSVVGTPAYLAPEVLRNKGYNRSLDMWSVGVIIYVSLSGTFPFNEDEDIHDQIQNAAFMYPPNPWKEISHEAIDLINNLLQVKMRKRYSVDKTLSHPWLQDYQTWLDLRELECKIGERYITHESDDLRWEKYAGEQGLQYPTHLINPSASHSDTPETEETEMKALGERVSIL
# INS promoter inh – TRM-6 insulin promoter activity inhibition; TRM-6 cells (human fetal islet line), insulin promoter-eGFP reporter, imaging; reporter expression induced with tamoxifen; inhibition, % at 2 µM; 130,000 tested, 0.9% active; AID 1273;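 active means inhibition above the mean plus 3 SD, with well images judged a real hit on visual review, cut at about 60% in these data, passing the limit was not always enough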
# INS promoter inh cell count – recorded beside INS promoter inh, whose call it bears; normalized cell count, %; measured here: cell count, toxicity; reference of the scale not given here;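 cells exposed to compound for 48 h; stained nuclei by imaging scaled within each plate; lower means fewer cells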
# HSV augment primary fold – also measured in HSV augment; calls as there; fold increase; compound at 10 µM; measured here: primary screen fold increase 10 uM; tested in PC3 cells;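 GFP signal in the first replicate; 1 = infected wells without compound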
# * marks the source's active call; other numbers are inactive results; i = inactive; . = no result given.
SMILES,GALR2 ag,HSV augment,HSV augment primary fold,RGS16-Gao,PKD1 kinase inh,INS promoter inh,INS promoter inh cell count
CC(C)(C)C(=O)NNC(=O)CCCOc1ccc(Cl)cc1Cl,-2.0,i,0.67,99.1,4.6,.,.
COC(=O)C(C)Sc1nc2c(c(=O)[nH]c(=O)n2C)n1CCCc1ccccc1 (configuration not stated),1.9,i,0.993,103.9,-11.4,-3.1,85.2
COC(=O)c1sccc1NC(=O)CC1C(=O)NCCN1C(=O)Nc1ccc(C(F)(F)F)cc1 (configuration not stated),.,i,0.8,111.9,.,.,.
CCOC(=O)C1=C(CN2CCc3ccccc32)NC(=O)NC1c1cc(C)ccc1C (configuration not stated),1.5,i,0.93,.,-2.8,.,.
Cc1ccccc1C(=O)NC(=S)Nc1ccc(S(=O)(=O)N(C)c2ccccc2)cc1,-1.6,i,1.14,98.9,-1.7,60.0,69.7
COc1cc(NC(=O)c2ccccc2-c2ccccc2)cc(OC)c1OC,.,i,0.97,101.7,-2.2,.,.
COc1cccc(C(=O)C2CCCN(Cc3cccc(-n4cccn4)c3)C2)c1 (configuration not stated),.,i,0.86,102.6,.,.,.
COc1ccc(/C(N)=N/OC(=O)/C=C/c2ccccc2)cc1,.,i,1,101.8,-1.4,.,.
Nc1nc(-c2ccccn2)nc(N)c1Cc1c(F)cccc1Cl,.,i,0.71,101.9,-9.1,.,.
O=C(O)CCN1C(=O)CC(N2C(=O)/C(=C/c3ccc(Cl)cc3)SC2=S)C1=O (configuration not stated),-2.3,i,0.97,90.4,1.8,32.0,126.2
Cc1ccc2c(CSc3nnc(C4CC4)n3N)cc(=O)oc2c1C,0.3,.,.,99.9,1.9,.,.
CCC(=O)N1N=C(c2c(-c3ccccc3)c3cc(Cl)ccc3[nH]c2=O)CC1c1ccco1 (configuration not stated),2.9,i,0.86,98.0,-7.5,.,.
CCN(CC)c1ccc(C(=O)OCC(=O)N(C(C)C)C(C)C)cc1,.,i,0.8,117.5,-3.2,.,.
O=C(CN1CCN(c2ccccc2Cl)CC1)NC1CCCc2ccccc21 (configuration not stated),0.7,i,1.06,107.1,3.1,-30.6,93.8
Cc1ccc(C(=O)Nc2nncs2)cc1S(=O)(=O)N1CCOCC1,0.3,i,0.79,88.9,-8.7,11.1,78.6
COc1ccc(C(=O)CN(Cc2ccccc2)C2=NCCS2)cc1,0.8,i,1.02,101.3,-0.8,.,.
CC(=O)c1cc(C#N)c(SCC(=O)C(C)(C)C)nc1C,-1.1,i,0.79,98.2,-4.0,65.4*,142.0*
CCCCCCOC(=O)c1ccc(OC(=O)c2cccnc2)cc1,-2.1,i,1,92.8,-11.3,23.3,134.1
CNc1ccccc1C(=O)OCC(=O)c1ccccc1,-2.2,i,1.3,102.7,-3.6,38.1,106.7
Cc1nc2ccc(S(=O)(=O)N(C)CC(=O)N3CCc4ccccc4C3)cc2s1,-2.0,i,0.98,95.2,-12.7,14.3,114.2
O=C(Nc1ccc([N+](=O)[O-])cc1)c1cc2ccccc2nc1Cl,.,i,0.97,96.2,.,.,.
CCOC(=O)Cc1csc(NC(=O)c2ccc(S(=O)(=O)N3CCCC3)cc2)n1,-1.7,i,0.75,100.5,0.6,-21.2,88.8
O=C(COC(=O)c1cc(=O)[nH]c2ccccc12)NC(=O)NC1CCCCC1,-1.8,i,1.09,99.7,-1.1,20.0,113.9
CC(C)C(c1nnnn1Cc1ccc(F)cc1)N1CCN(Cc2ccc3c(c2)OCO3)CC1 (configuration not stated),-0.4,i,1.12,101.1,10.6,-121.4,147.8
O=C(/C=C/c1cccs1)NCc1cccnc1,-1.7,i,0.9,93.8,1.5,37.5,129.9
Clc1ccc(-c2nnnn2-c2ccc(Cl)c(Cl)c2)cc1Cl,-0.9,i,0.86,101.8,5.4,-9.4,188.7
O=C(Oc1ccc(Cl)c2cccnc12)N1CCCCC1,-1.7,i,0.91,102.0,-10.3,.,.
CCN(C(=O)CN1CCN(c2ccccc2F)CC1)c1c(N)n(Cc2ccccc2)c(=O)[nH]c1=O,.,i,0.93,97.7,-10.6,35.3,122.0
C=CCn1nnc2sc3c(c2c1=O)CCC(C)C3 (configuration not stated),-0.1,i,0.847,95.1,0.0,0.0,121.3
CCOc1c(C)cc2[nH]c(CCC(=O)O)nc2c1C,-1.3,i,0.93,101.2,-13.4,-18.8,99.7
O=C(NCCN1C(=O)C2C3C=CC(C3)C2C1=O)Nc1ccccc1O (configuration not stated),-1.5,i,0.68,100.8,5.6,.,.
O=C(COC(=O)c1ccc[nH]c1=O)NC1CCCCC1,.,i,1.38,102.0,.,.,.
O=C(COc1ccc(S(=O)(=O)N2CCc3ccccc32)cc1Cl)NCc1ccccn1,-0.7,i,0.91,110.8,-13.4,-5.3,100.7
Cc1ccc(S(=O)(=O)N2CCOCC(=O)NCCOCCNC(=O)COCC2)cc1,-1.6,i,1,101.7,2.2,.,.
CC(C)(C)NC(=O)c1ccc2c(c1)CCO2,.,i,1.08,104.6,.,.,.
Cc1ccc(OCCNC(=O)C(=O)NCc2ccco2)cc1,.,i,0.81,77.2,-5.5,.,.
O=C(CCC(=O)N1CCN(S(=O)(=O)c2ccc(Cl)cc2)CC1)NC1CCCc2ccccc21 (configuration not stated),-0.8,i,1.04,102.3,-9.3,-28.9,108.6
COc1cc(-c2noc(CCCC(=O)Nc3ccc(C(N)=O)cc3)n2)cc(OC)c1OC,.,i,1.03,97.4,.,.,.
Cc1onc(-c2ccccc2)c1C(N)=O,-1.2,i,1.01,99.1,0.6,.,.
CCOC(=O)C1CCN(c2ccc([N+](=O)[O-])c(C(C)=O)c2)CC1,.,i,0.94,100.7,5.3,.,.
Cc1ccc(-n2c(C)cc(C(=O)OCC(=O)N(C)C3CCS(=O)(=O)C3)c2C)cc1 (configuration not stated),-1.5,i,0.95,80.7,-2.8,34.6,118.5
O=C(Nc1ccccc1N1CCCC1)c1cccc(-c2cc3ccccc3oc2=O)c1,-3.6,i,0.99,36.0,-6.4,.,.
Cc1nn(-c2ccccc2)cc1/C=N/O,-2.3,i,1.01,121.5,-4.7,.,.
Cc1ccc(C)c(NC(=O)C(OC(=O)c2ccc(C)s2)c2ccccc2)c1 (configuration not stated),-0.2,i,1.02,112.1,-3.2,.,.
O=C(CCN1CCCCC1)Nc1ccc(Br)cc1,-0.3,i,1.07,102.7,2.4,-500.0,47.2
CC(C)=CC(=O)N1CCCc2ccccc21,-2.2,i,0.97,98.1,1.8,0.0,103.5
Cc1nnc(C)c2c(C)n(Cc3ccc4c(c3)OCO4)c(C)c12,-0.3,i,0.87,102.5,1.0,5.3,65.3
O=C(CCc1nc(-c2ccccc2Cl)no1)NCC1CCCO1 (configuration not stated),.,i,0.94,99.8,-6.0,-20.0,139.9
COc1ccc(NC(=O)c2ccc3c(c2)OCO3)cc1[N+](=O)[O-],.,i,1.07,106.9,-9.9,.,.
CN1CCN(S(=O)(=O)c2ccc(NC(=O)C3CCCO3)cc2)CC1 (configuration not stated),-1.5,i,0.9,99.6,-4.8,46.1,98.9
COc1ccc(-n2nnc3c(=O)n(C/C=C/c4ccccc4)cnc32)cc1,-1.6,i,0.81,98.9,-12.2,14.1,76.4
COc1ccc(CNC(=O)C(OC(C)=O)c2ccccn2)cc1 (configuration not stated),0.0,i,0.98,86.2,-8.1,15.2,85.5
CC(C)N(Cc1ccccc1)C(=S)NC(=O)C1(C)CC1(Cl)Cl (configuration not stated),.,i,0.95,80.7,3.8,45.0,83.7
O=C(OCCO)c1cc(Cl)c(C(=O)OCCO)cc1Cl,-1.9,i,0.963,101.2,-6.2,-56.2,64.7
CC(=O)N1CCN(c2ccc(NCc3ccc(C)s3)cc2)CC1,-4.5,i,0.98,99.1,-3.9,.,.
CCc1ccc(/C=N/NC(=O)Cc2cccn2C)cc1,.,i,1.05,99.9,.,.,.
Cc1onc(C(=O)NN)c1C(=O)Nc1ncc(C(F)(F)F)cc1Cl,.,i,0.99,110.4,-8.2,-18.2,85.0
CCOCCCNc1nc2c(C)cccn2c(=O)c1/C=C1\SC(=S)N(CC(C)C)C1=O,-1.2,.,.,116.5,-9.9,-222.6,91.9
COc1ccc(/C=N/NC(=O)c2cccc(NC(C)=O)c2)c(C(=O)O)c1OC,.,i,0.98,94.6,1.4,.,.
Cc1nc(NCc2ccco2)c2c(C)c(C)sc2n1,-2.5,i,0.47,93.4,5.6,61.3,142.6
# The list goes on:
SMILES,GALR2 ag,HSV augment,HSV augment primary fold,RGS16-Gao,PKD1 kinase inh,INS promoter inh,INS promoter inh cell count
O=C(NCc1ccco1)c1ccccc1NC(=O)C1CC(=O)N(c2ccc(Cl)cc2)C1 (configuration not stated),-1.6,i,0.91,96.1,-1.0,-179.2,92.5
CCOc1ccccc1C(=O)Nc1ccccc1O,-1.4,i,0.95,99.6,8.1,-12.5,128.8
COc1ccc(-c2ccc(=O)[nH]n2)cc1,-2.5,i,0.91,101.1,8.5,.,.
Cc1ccc(C)c(S(=O)(=O)N2CCC(c3nc4c(nnn4Cc4ccc(F)cc4)c(=O)[nH]3)CC2)c1,-0.2,i,1.04,101.6,-12.2,-18.2,140.6
CCOC(=O)CNC(=O)Cc1ccc(OC)cc1,.,i,0.88,89.0,.,.,.
CN(C)/C=C/C(=O)c1ccc(S(=O)(=O)c2ccccc2)cc1,.,i,1.03,113.6,-7.8,-90.9,123.1
CCC(C)[C@H](NC(=O)NCc1ccc(OC)c(OC)c1)C(=O)O (some centres not stated),.,i,0.94,107.0,.,.,.
CC(=O)c1ccc(Nc2cnn(C34CC5CC(CC(CC(=O)O)(C5)C3)C4)c(=O)c2Cl)cc1,.,i,0.93,102.9,-1.9,18.5,120.6
CC(=O)c1cccc(NC(=O)C(Sc2ncnc3ccccc23)c2ccccc2)c1 (configuration not stated),-0.5,i,0.99,106.5,-1.0,.,.
O=C(CSc1cn(CCNC(=O)c2cccs2)c2ccccc12)NC1CCCC1,-1.9,i,0.77,107.2,2.5,.,.
C[N+]1(CCOS(=O)C23CC4CC(CC(C4)C2)C3)CCOCC1 (configuration not stated),-0.3,i,0.88,97.5,-11.8,.,.
Cc1cc(C)nc(N2CCC(CNC(=O)CCc3ccccc3)CC2)n1,-2.3,i,0.993,102.2,-0.2,-26.7,45.5
CCCCC(=O)OCC(=O)Nc1ccc(C)c(F)c1,.,i,0.93,96.5,1.9,.,.
CCN1C(=O)CC(NCc2ccc3c(c2)OCO3)C1=O (configuration not stated),-1.6,i,0.95,95.3,2.7,3.3,93.9
CCOC(=O)c1c(C)nc2c(C#N)cnn2c1C,-0.9,i,0.9,101.4,0.2,-8.6,127.4

# One compound at a time, as listed above:
# `CCN1C(=O)CC(NCc2ccc3c(c2)OCO3)C1=O` (configuration not stated) as listed: GALR2 ag: -1.6; HSV augment: i; HSV augment primary fold: 0.95; RGS16-Gao: 95.3; PKD1 kinase inh: 2.7; INS promoter inh: 3.3; INS promoter inh cell count: 93.9
# `C[N+]1(CCOS(=O)C23CC4CC(CC(C4)C2)C3)CCOCC1` (configuration not stated) as listed: GALR2 ag: -0.3; HSV augment: i; HSV augment primary fold: 0.88; RGS16-Gao: 97.5; PKD1 kinase inh: -11.8; INS promoter inh: .; INS promoter inh cell count: .

# Next part.
SMILES,GALR2 ag,HSV augment,HSV augment primary fold,RGS16-Gao,PKD1 kinase inh,INS promoter inh,INS promoter inh cell count
COc1cc(C2C(C(C)=O)=C(O)C(=O)N2c2ccc(C)cc2)ccc1O (configuration not stated),-0.9,i,1.01,100.8,-4.7,15.4,100.0
O=C(C[n+]1cn(C(F)F)c2ccccc21)c1ccc(OC(F)F)cc1,.,i,0.87,90.8,-2.4,.,.
COC(=O)CSc1nnc(C2COc3ccccc3O2)n1-c1ccccc1 (configuration not stated),-0.5,i,0.93,103.6,6.1,-1.3,101.6
COc1ccc(OCc2n[nH]c(=S)o2)cc1,-3.9,i,0.95,101.4,4.4,-17.1,73.8
Cc1cccc(N(CC(O)CON=C2c3ccccc3-c3ccccc32)S(C)(=O)=O)c1 (configuration not stated),-3.5,i,0.77,71.7,-2.7,-35.7,86.8
Cc1csc(N(C(=O)Cc2ccccc2F)c2ccccc2)n1,0.2,i,1.02,99.5,3.1,-15.6,109.1

# Molecules above that contain a nitro group on carbon (3):
SMILES,GALR2 ag,HSV augment,HSV augment primary fold,RGS16-Gao,PKD1 kinase inh,INS promoter inh,INS promoter inh cell count
O=C(Nc1ccc([N+](=O)[O-])cc1)c1cc2ccccc2nc1Cl,.,i,0.97,96.2,.,.,.
CCOC(=O)C1CCN(c2ccc([N+](=O)[O-])c(C(C)=O)c2)CC1,.,i,0.94,100.7,5.3,.,.
COc1ccc(NC(=O)c2ccc3c(c2)OCO3)cc1[N+](=O)[O-],.,i,1.07,106.9,-9.9,.,.
